# Compound activity deposited in PubChem by ICCB-Longwood Screening Facility, Harvard Medical School.
# HCMV UL50-53 inh – inhibitors of HCMV UL50-UL53 interaction, biochemical, HTRF; HCMV UL50-UL53 nuclear egress complex (human cytomegalovirus); normalized percent inhibition; inhibition, % (test concentration not listed); 190,000 compounds, 0.15% hits; AID 1918969, 2023;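 active means both replicates at 50% or more, plus weaker picks with an unusually low signal ratio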;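 further: stock transfer was 100 nL into about 20 µL; 0% = negative control wells and 100% = wells with untagged competitor protein; inactives centre near -12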
# GIV-Gai inh – inhibitors of GIV peptide binding to Galpha-i3, primary screen, biochemical, fluorescence polarization, FITC-GIV GBA peptide, rat Galphai3 | percent of control (FP), % (test concentration not listed) | 90 min; active compounds read low; scaled: aluminum fluoride 0%, vehicle 100% | AID 1224905, 2016 | 210,000 compounds, 0.42% hits;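 active means replicate mean at 85% of control or lower, very high polarization wells dropped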;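 further: lower values mean more displacement of the GIV peptide from Galpha-i3; wells of about 15 µL received 100 nL stock; the first replicate is given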
# Target sequence (P08753 whole entry, looked up): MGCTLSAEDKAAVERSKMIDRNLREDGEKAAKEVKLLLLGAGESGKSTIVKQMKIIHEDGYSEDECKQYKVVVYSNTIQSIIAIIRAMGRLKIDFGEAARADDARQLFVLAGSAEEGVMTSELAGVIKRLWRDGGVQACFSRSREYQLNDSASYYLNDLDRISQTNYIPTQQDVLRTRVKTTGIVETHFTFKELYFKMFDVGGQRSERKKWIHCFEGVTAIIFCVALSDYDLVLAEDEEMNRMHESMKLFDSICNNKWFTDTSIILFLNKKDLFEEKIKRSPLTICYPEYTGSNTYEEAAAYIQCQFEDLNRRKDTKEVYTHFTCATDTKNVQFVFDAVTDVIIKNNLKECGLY
# Sa growth 42C – S. aureus growth inhibition at 42 and 30 °C, primary screen, LtaS inhibitor project, RN4220, two temperatures; OD600, 20 h, 42 °C; active compounds read low; 170,000 compounds, 0.53% hits; relative growth, % (no concentration beside the values);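 active means growth at 42 °C up to 50% and 20 or more points under that at 30 °C, or under 10% at both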;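 further: 300 nL library stock went into each well; scaled to the means of positive and negative controls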
# Sa growth 42C second temp – further read-out of Sa growth 42C, marked with its call; relative growth, %; measured here: growth at 30 °C;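 optical density after 20 h as mean of two plates; 100% = untreated growth and lower means inhibition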
# * = called active by the depositor; . = no result given.
SMILES,HCMV UL50-53 inh,GIV-Gai inh,Sa growth 42C,Sa growth 42C second temp
O=S(=O)(NC1CCCc2ccccc21)c1ccccc1 (stereo not given),-38,107,90,81
CCN1CCN(C(=O)C2CCCCC2)c2cccnc21,-6,109,.,.
CC1=CCC(C(=O)O)(C(=O)NCc2ccccc2)C(c2ccc(Br)cc2)C1 (stereo not given),6,.,165,105
COc1ccc(N2CCN(S(=O)(=O)CCNC(=O)COc3ccccc3F)CC2)cc1,.,104,90,96
CCCCCn1c(SC(C)C(N)=O)nc2ccccc21 (stereo not given),-3,.,116,93
COC(CN=C1COc2cccnc2N1)OC,.,102,95,89
O=c1c(=S)[nH]ccn1-c1ccccc1,-36,105,55,65
O=S(=O)(Cc1noc(-c2ccc(OC(F)(F)F)cc2)n1)c1ccc(F)cc1,4,101,110,94
CNC(=O)Cn1cnc2oc(C)c(C)c2c1=O,-16,100,.,.
COc1ccc(/C=C2/SC(=S)N(CC(=O)Nc3ccc(F)c(Cl)c3)C2=O)cc1OC,-19,100,.,.
Cc1cccc(N2CCN(C(=O)c3ccc4c(=O)[nH]c5c(C(=O)NC(C)C)sc(=S)n5c4c3)CC2)c1C,14,108,96,101
O=S(=O)(c1ccc2oc(SCc3ccccc3C(F)(F)F)nc2c1)N1CCCCC1,-12,.,99,95
O=C(c1ccc(=O)n(Cc2ccccc2)n1)N1CCN(c2ccccc2)CC1,-9,.,100,94
CC1CCCCC1n1cnc2cc(C(=O)O)ccc21 (stereo not given),-1,94,88,96
CC(C)C(=O)NCC(c1ccccc1Cl)c1c[nH]c2ccccc12 (stereo not given),-2,111,.,.
CCS(=O)(=O)N1CCC(c2nc(-c3ccc(C)cc3)no2)CC1,-12,102,92,89
CC(C)(Oc1ccccc1Cl)C(=O)O,-15,.,94,87
Cn1c(-c2nnc(SCC(=O)N3CCCCC3)o2)cc2ccccc21,-4,97,.,.
CC(=O)OCC(=O)Nc1nc2c(C)cc(C)cc2s1,-10,.,102,95
O=c1c(N2CCN(c3cccc(Cl)c3)CC2)csc2ccccc12,.,104,109,85
O=C(Nc1cccc(C(F)(F)F)c1)c1ccc(F)c(S(=O)(=O)N2CCc3ccccc3C2)c1,.,107,116,93
CC(C)(C)C(=O)NC(c1ccc(Cl)cc1)c1nnc(-c2ccccc2)o1 (stereo not given),-28,111,109,94
Cc1ccc2c(c1)NC(CCC(=O)N1CCN(c3cc(Cl)ccc3C)CC1)=NS2(=O)=O,-31,104,113,88
O=C(NCc1cccc(Cl)c1)C1CCN(c2nc3ccccc3nc2C(F)(F)F)CC1,-5,111,.,.
Cc1ccc2c(c1)c1c(n2C)C(=O)CCC1,-39,101,96,88
CCn1cc(C(=O)O)c(=O)c2cnc(N3CCN(C(=S)NC)CC3)nc21,-7,.,92,89
O=C(NCc1noc2ccccc12)N1CCCCC1,.,107,110,92
CCn1c(=O)c2cc(C(=O)N(C)CCC#N)sc2c2ccccc21,.,95,82,86
Cc1cc(N2CCOCC2)n2nc(-c3ccccc3)c(C)c2n1,-15,103,.,.
COc1ccc(Br)cc1[C@@H]1Nc2ccc(C(=O)O)cc2[C@@H]2C=CC[C@@H]21,1,112,76,49
O=C(O)CC12CC3CC(CC(Cl)(C3)C1)C2,-12,.,95,91
CCN1CCC(N(Cc2cccc(OC)c2)C(=O)Nc2cc(C)cc(C)c2)CC1,-26,98,88,82
Cn1c(SCc2ccccc2)nnc1C1CCCN1CC(=O)N1CCN(c2ccc(F)cc2)CC1 (stereo not given),-11,102,85,60
Cc1ccc(-c2cc(NC(=O)COc3ccc(Cl)cc3C)on2)cc1,-4,105,106,91
COC(=O)/C=C1\S/C(=N\c2ccccn2)N(c2cccc(C(F)(F)F)c2)C1=O,.,99,80,79
Cc1cc(C)c(NC(=O)c2[nH]c(C)c(S(=O)(=O)N3CCCC3)c2C)c(C)c1,-18,107,.,.
O=C(Oc1ccc(/C=N/O)cc1)c1ccccc1,-1,104,80,77
NC(=O)c1sccc1NC(=O)CSc1ccc(Cl)cc1,5,109,102,95
CN(Cn1nc2c(Cl)cc(Cl)cn2c1=S)C1CCCCC1,-85,.,95,82
O=C(Cc1c[nH]c2ccccc12)OCC(=O)c1ccc(F)cc1,-13,.,106,71
COc1ccc(Cl)cc1NC(=O)CCc1nc(-c2ccccc2F)no1,-4,103,92,89
COC(=O)c1nnn(-c2nc(N3CCCCC3)nc(N3CCCCC3)n2)c1C,6,107,92,93
COc1ccc(Cl)cc1-c1csc(CC#N)n1,13,.,106,98
CCOC(=O)c1cc(C)n(S(=O)(=O)c2ccc(C)cc2)c1C,.,100,105,80
COC(=O)/C=C/c1cc2ccccc2o1,-63,104,.,.
CC1CCCC(C)N1C(=O)Nc1ccccc1 (stereo not given),-11,101,99,93
Cn1c(CN2CCOCC2)nc2cc(NC(=O)c3ccccc3[N+](=O)[O-])ccc21,-53,106,90,98
CN(CC(=O)O)C(=O)c1ccco1,-24,101,111,105
Cc1nnc(SCc2cc(Cl)c3c(c2)OCCCO3)n1C1CC1,-11,.,94,86
O=c1oc2ccc(Br)cc2cc1-c1csnn1,-48,103,95,85
# Next records
SMILES,HCMV UL50-53 inh,GIV-Gai inh,Sa growth 42C,Sa growth 42C second temp
O=C(OCc1ccccc1)[C@@H]1CCCN1C(=O)c1cccs1,-16,.,92,99
C=CCSC1=N/C(=C\c2ccc(-c3ccc(F)cc3)o2)C(=O)S1,-4,287,85,38
Cc1cccc(OCC(=O)N(Cc2ccc(N(C)C)cc2)Cc2ccco2)c1C,9,106,90,43
C[N+]1(CCOCc2ccccc2)CCOCC1,-6,.,89,88
COC(=O)c1ccc(N2CCOCC2)c(NC(C)=O)c1,-16,109,94,100
Cc1ccc(C)c(N2CCN(c3cc(C)nc4c(-c5ccccc5)c(C)nn34)CC2)c1,-14,102,.,.
Cc1ccc(C(=O)N2CCc3cc(CNC(=O)c4ccnn4C)ccc32)cc1,.,103,140,82
Cc1cc(C)c2c(CC(=O)NC(C)C)coc2c1,-14,101,90,91
CCOC1(c2cccs2)OC(c2cccs2)=C(c2cccs2)OC1c1cccs1 (stereo not given),-71,.,86,83
COc1ccccc1C(=O)Nc1nc2nc(C)c(Cc3ccccc3)c(=O)n2[nH]1,18,98,88,86
CCCc1nn2c(=O)cc(COC(=O)c3ccccc3NC(=O)c3ccc(Cl)cc3)nc2s1,.,97,77,93
CCC(C)NC(=O)CSc1nc2ccccc2c(=O)n1CCNC(C)=O (stereo not given),1,98,111,82
Cc1ccc(N=Cc2c(Sc3ccc(Cl)cc3)nc3sccn23)cc1,-31,104,106,90
C#CCn1c(CSc2ccccc2)nc2ccccc21,10,104,89,74
O=C(c1ccccc1)N1CN(C2CCCCC2)Cc2c1sc1c2CCCC1,-8,.,106,81
Cc1cccc2c(=O)cc(CSc3ccccc3NC(=O)C(C)C)[nH]c12,.,103,109,88
COc1ccc(/C=C/C(=O)Nc2nc3n(n2)C(c2ccccc2)C=C(c2ccc(Cl)cc2)N3)cc1 (stereo not given),-33,105,119,92
COc1ccc(C(=O)Nc2c(C(=O)c3ccccc3)oc3ccccc23)cc1,-10,106,100,93
COc1ccc(Cl)cc1NC(=O)COC(=O)CC(C)(C)CC1=NS(=O)(=O)c2ccccc2N1,.,105,90,84
O=c1c2cc3c(nc2ncn1CCN1CCOCC1)CCCC3,-11,140,.,.
CCOC(=O)C1CCN(S(=O)(=O)c2cc3c4c(c2)C(C)C(=O)N4CCC3)CC1 (stereo not given),.,98,121,82
Nc1nc(N)nc(CSc2nncs2)n1,8,.,99,106
COc1cc(Br)cc2cc3c(=O)n(-c4ccccc4)nc-3oc12,.,99,76,83
C=CCNc1nc(Nc2ccc(Cl)cc2)nc(OC)n1,.,105,69,58
CCCc1noc2c1C(=O)CC(C)(C)C2,0,98,97,93
Cc1ccc(S(=O)(=O)NC(=O)N2CC3(C)CC2CC(C)(C)C3)cc1 (stereo not given),-16,.,131,101
Cc1nc2ccccc2n1C(F)(F)C(F)F,-19,102,95,82
Cc1ccc(NC(=O)Cn2cc(S(=O)(=O)Cc3cccc(Cl)c3)c3ccccc32)cc1C,.,105,130,94
Cc1c(C(=O)CSc2nnc(CN3CCOCC3)n2C)c2ccccc2n1C,.,102,99,82
CN(CCC#N)C(=O)C1CCN(S(=O)(=O)c2cccs2)CC1,-12,.,92,86

# By substructure, those above with a CF3 group (5)
SMILES,HCMV UL50-53 inh,GIV-Gai inh,Sa growth 42C,Sa growth 42C second temp
O=S(=O)(Cc1noc(-c2ccc(OC(F)(F)F)cc2)n1)c1ccc(F)cc1,4,101,110,94
O=S(=O)(c1ccc2oc(SCc3ccccc3C(F)(F)F)nc2c1)N1CCCCC1,-12,.,99,95
O=C(Nc1cccc(C(F)(F)F)c1)c1ccc(F)c(S(=O)(=O)N2CCc3ccccc3C2)c1,.,107,116,93
O=C(NCc1cccc(Cl)c1)C1CCN(c2nc3ccccc3nc2C(F)(F)F)CC1,-5,111,.,.
COC(=O)/C=C1\S/C(=N\c2ccccn2)N(c2cccc(C(F)(F)F)c2)C1=O,.,99,80,79

# Other compounds
SMILES,HCMV UL50-53 inh,GIV-Gai inh,Sa growth 42C,Sa growth 42C second temp
C=Cc1ccc(Cn2nc3n(Cc4ccc(C)cc4)c(=O)c4ccc(C(=O)NC(C)C)cc4n3c2=O)cc1,-39,102,.,.
CCc1nc2ccc(C(=O)NCCc3ccc(OC)cc3)cc2nc1CC,-3,100,.,.
CC(C)Cc1ccc(S(=O)(=O)Nc2ccc3nc(N4CCN(C)CC4)cc(C(=O)O)c3c2)cc1,-49,103,.,.
Cc1cccc(C(=O)Nc2ccc(-c3nc4ccccc4s3)c(C)c2)c1,.,98,135,88
C(=C1\CCCC2=C1Nc1nnnn1C2c1ccccc1)/c1ccccc1 (stereo not given),-16,96,.,.
CCOc1ccc2nc(SCc3c(C(=O)OC)nnn3-c3nonc3N)sc2c1,7,110,.,.
Fc1ccc(Nc2c3c(nc4nncn24)CCC3)cc1,-17,103,102,86
Cn1c(=O)cc(SCC(=O)Nc2ccccn2)c2ccccc21,-22,106,102,87
Cc1nnc(N(C)C(=O)c2ccccn2)s1,-22,101,108,87
C#CCn1c(=NC(=O)C(C)C)sc2cc(Br)ccc21,-26,104,94,87
CCCc1c(C)nc2ncnn2c1Sc1ccccc1NC(=O)Nc1ccc(Cl)cc1,-29,105,.,.
Cn1c(C(C#N)C(=O)c2n[nH]c(=O)c3ccccc23)nc2ccccc21 (stereo not given),-10,.,98,98
COc1ccc(CCNC(=O)c2ccc(Nc3nc4ccccc4n4nnnc34)cc2)cc1OC,-1,103,100,92
Cn1c(SCC(=O)NC2C3CC4CC(C3)CC2C4)nnc1-c1cccnc1 (stereo not given),7,.,90,95
COc1ccc(C2CC(=O)CC(=O)C2)cc1,-24,105,87,95
Cc1ccc(-n2ccnc(NCc3ccccc3)c2=O)cc1C,.,98,131,92
Oc1ccc(NCc2ccccc2OCc2ccc(Cl)cc2)cc1,26,104,78,79
CC1(C(=O)NCc2ccc(F)cc2F)CCN(C(=O)c2ccc3c(c2)OCO3)CC1,2,106,.,.
CC1=C/C(=N/NC(=O)c2c[nH]c3ccccc23)CC(C)(C)C1,-28,.,101,87
C=CCC(CC=C)(NC(=O)c1ccccc1)c1ccccc1,-12,.,84,77
Nc1ccc(SCC(=O)O)c(C(=O)O)c1,-5,101,108,99
CCc1ccc(S(=O)(=O)N2CCN(S(=O)(=O)c3ccc(CC)cc3)C(C)C2)cc1 (stereo not given),-23,104,93,92
CCOC(=O)c1nc(Nc2cccc(Br)c2)c2c(C)noc2n1,-2,110,.,.
O=C1C=CC(=O)N1Cc1ccc2c(c1)OCO2,-9,102,61,31
Cc1ccc(N(C)C(=O)n2cnc3ccccc32)cc1,-9,100,115,91
O=C(CCn1c(=O)oc2ccccc21)NCCN1CCCCC1,1,95,97,103
CCn1c(=Nc2ccc(C)cc2)ccc2cc(C)ccc21,.,105,114,101
Cc1c(N2CCC(C(=O)N3CCCCC3)CC2)c(=O)n(C)c(=O)n1-c1ccccc1,-30,104,.,.
Clc1ccc(CN2CCC(CNc3ncnc4onc(-c5ccc(Cl)cc5)c34)CC2)cc1,-26,100,122,57
COc1cc(CNC(=O)c2cc3n(n2)CCCN(Cc2cccc(F)c2)C3=O)cc(OC)c1OC,.,103,82,84

# Whole records from above:
# Cc1nc2ccccc2n1C(F)(F)C(F)F is listed with HCMV UL50-53 inh = -19; GIV-Gai inh = 102; Sa growth 42C = 95; Sa growth 42C second temp = 82
# COC(=O)/C=C/c1cc2ccccc2o1 is listed with HCMV UL50-53 inh = -63; GIV-Gai inh = 104; Sa growth 42C = .; Sa growth 42C second temp = .

# Carrying on.
SMILES,HCMV UL50-53 inh,GIV-Gai inh,Sa growth 42C,Sa growth 42C second temp
FC(F)(F)c1ccnc(=S)[nH]1,-15,100,26,23
Nc1cc(Nc2ccc(Br)cc2)nc(N)n1,-1,102,102,65
CCOC(=O)c1cnn(-c2cc(Cl)cc(Cl)c2)c1C(C)C,-2,97,111,93
O=C(O)c1ccc(N=Cc2ccc(-c3ccc(Cl)cc3)o2)cc1,-35,.,101,87
O=c1[nH][nH]c(=S)n1-c1ccc2c(c1)OCCO2,16,110,89,93
O=C(c1ccc(F)cc1)c1ccc(N2CCCCC2)cc1,-8,103,102,95
